PMP22 txn: PMP22 gene transcription modulation | Potency, µM (top dose mostly 57.5 µM), for the others: at the top dose activity change, negative = inhibition, actives largely listed as inhibitors | AID 1508649 | actives 2% (n = 43,000) | S16 Pmp22-F2sN Schwann cells (luciferase reporters placed in the Pmp22 gene), FLuc/NLuc coincidence luminescence, 24 h; active = clear falling dose curves in both reporters; inconclusive = both reporters move, but less clearly or upward; inactive = either reporter flat; the % is the NLuc reporter signal; also: % is scaled to controls: 0 for no effect and ±100 for the full control effect; some results filed as inactive show a strong effect at the top dose
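Luminescent read-out of sequential FLuc and NLuc signals from a reporter embedded in the Pmp22 3' UTR of S16 Schwann cells, taken after 24 h compound exposure at 37C; compounds reducing both signals score as inhibitors of expression.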
HTT promoter inh: inhibits huntingtin promoter activity. HEK293 HTT promoter firefly luciferase reporter (activity 0% = vehicle and -100% = no light), 24 h. Potency, µM (highest dose often 57.5 µM), without a hit: at the highest dose activity change, negative = inhibition, usual class: inhibitors. actives 0.93% (n = 48,000). AID 1508623; active = well fitted inhibition curve with a large enough effect; inconclusive = small, poorly fitted or top-dose-only effect; inactive = no such curve, though single readings can be large or run the other way; also: nearly all actives have a fitted effect of over 50% in size
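HEK293 cells carrying firefly luciferase reporters were seeded at 2,500 per well in Opti-MEM and cultured for 24 h. They were then treated with compounds at up to 57.5 uM final for 24 h at 37 degrees C before Dual-Glo luminescence readout.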
* marks the source's active call; other numbers are inactive results; ? = inconclusive; . = not tested or not shown; [ ] = dose if it differs, or a comment. Potency is read from the fitted curve at half-maximal effect. This is a random part of the collection. About 2.4% of those tested had a hit in this group.

Results follow in this order: PMP22 txn, HTT promoter inh
COCCNc1ncnc2c1c(-c1ccccc1)cn2-c1ccc(C)c(Cl)c1
 : -24%, -28%
Cc1ccccc1NC(=O)CSc1cn(CC(=O)N2CCCC2)c2ccccc12
 : 2%, -35%
O=C(NCc1cccc(Cl)c1)C1CCCN(c2nn3cc(-c4ccc(F)cc4)nc3s2)C1 (stereo not drawn)
 : -27%, 2.5µM*
CC(C)c1ccc(S(=O)(=O)c2nnn3c2nc(N2CCN(C)CC2)c2sccc23)cc1
 : ?, -5%
Cc1ccc(N2C(=O)CSC23C(=O)N(CC(=O)NCCc2ccccc2)c2ccccc23)cc1 (stereo not drawn)
 : 3%, -12%
Cc1cccc(C(=O)NCCc2sc(-c3ccccc3)nc2C)c1
 : 1%, -19%
CCOC(=O)c1cccc(NC(=O)c2nn(-c3ccc(OC)cc3)c(=O)c3c2c2ccccc2n3C)c1
 : ?, -24%
CCOc1ccc(C2CC(=O)Nc3c2c(=O)nc(SCc2ccccc2C)n3C)cc1OC (stereo not drawn)
 : 24%, -17%
CCc1cnc2c(c1SCc1cc(OC)cc(OC)c1)c(=O)n(C)c(=O)n2C
 : ?, -9%
COc1cc(OC)cc(C(=O)NCc2ccc3c(c2)CCN3C(=O)c2ccccc2)c1
 : ?, ?
Cc1cccc(N2CCN(S(=O)(=O)c3cc(C(=O)Nc4ccc(Oc5ccccc5)cc4)ccc3F)CC2)c1C
 : -7%, ?
O=C(NCCc1nc2ccccc2n1Cc1ccc(Cl)cc1)c1ccccc1
 : -5%, -26%
COc1cc(-c2cc3n(C)c(C)c(CCC(=O)NC4CCCCC4)c(=O)n3n2)cc(OC)c1OC
 : 27%, -1%
COc1ccc(-c2nc3ccccc3n3c(-c4cccc(C)c4)c4c(=O)n(C)c(=O)n(C)c4c23)cc1
 : ?, -11%
CCOC(=O)c1ccc(NS(=O)(=O)c2ccc3c(c2)OCCO3)cc1
 : -20%, ?
Cc1ccc(Cn2c(CNS(=O)(=O)c3ccc(C(C)(C)C)cc3)nc3cccnc32)cc1
 : -16%, -29%
CCOc1ccc(-n2cc(-c3ccccc3)c3c(N4CCC(C)CC4)ncnc32)cc1
 : 3%, -22%
Cc1cc(N2CCN(C)CC2)nc2ccc(NC(=O)c3ccccc3F)cc12
 : ?, 51%[activator]
Cc1cccc(C(=O)n2nc(-c3ccco3)nc2NCc2ccccc2)c1
 : -15%, 26%
COc1ccc(-c2nc3c4ccccc4n(CC(=O)Nc4cc(F)ccc4F)c(=O)n3n2)cc1
 : -20%, 29%

The list goes on; it opens with the three that closed the last part.
Results follow in this order: PMP22 txn, HTT promoter inh
Cc1cc(N2CCN(C)CC2)nc2ccc(NC(=O)c3ccccc3F)cc12
 : ?, 51%[activator]
Cc1cccc(C(=O)n2nc(-c3ccco3)nc2NCc2ccccc2)c1
 : -15%, 26%
COc1ccc(-c2nc3c4ccccc4n(CC(=O)Nc4cc(F)ccc4F)c(=O)n3n2)cc1
 : -20%, 29%
Cc1ccc(-c2nc(-c3cc4cccc(OCc5ccc(F)cc5)c4oc3=O)no2)cc1
 : ?, -9%
Cc1c2cnn(CC(=O)NCC(C)c3ccccc3)c(=O)c2c(C)n1Cc1cccc(Cl)c1 (stereo not drawn)
 : -8%, ?
Cc1nnc2c3ccccc3nc(N3CCN(c4ccccc4)CC3)n12
 : 8%, -26%
Cc1ccc(N2CC(c3nnc(Cc4ccc(Cl)cc4)o3)CC2=O)cc1 (stereo not drawn)
 : -4%, -31%
Nc1ccc(S(=O)(=O)Nc2ccccc2)cc1
 : ., -7%
Cc1ccc(C(=O)N(Cc2sccc2C)C2CCS(=O)(=O)C2)cc1 (stereo not drawn)
 : 4%, -15%
COc1ccccc1-n1ncc2c(=O)[nH]c(SCC(=O)Nc3ccc(Cl)cc3)nc21
 : 72%, -33%
COc1cc2c(cc1OC)C1CC(=O)C(CC(C)C)CN1CC2 (stereo not drawn)
 : ., -7%
CCOC(=O)CSc1nc2c(sc3ccccc32)c(=O)n1CCO
 : -15%, -26%
COc1ccc(-c2nc(-c3ccccc3)c(-c3ccc(O)cc3)[nH]2)cc1
 : ?, 0%
CC(C)c1ccc(Nc2c(-c3ccco3)nc3ccccn23)cc1
 : ?, -2%
COc1cc(Cl)c(C)cc1NC(=O)Cn1cnc2sc(C)c(S(=O)(=O)N3CCCCC3)c2c1=O
 : 1%, ?
O=C(Nc1ccc(C(F)(F)F)cc1)c1cc(S(=O)(=O)NC2CCCCC2)ccc1F
 : ?, ?
COc1ccc(OCCn2cc(C(=O)c3ccco3)c3ccccc32)cc1
 : ?, -28%
Cc1cccc(N2CCN(C(=O)c3cccc(-n4c(C)nc5cccnc54)c3)CC2)c1C
 : 13µM*, ?
CCOc1ccc(NC(=O)N(Cc2cn(CC)c3ccccc23)C2CCCCCC2)cc1
 : ?, -13%
O=C(NCCCN1CCOCC1)c1ccc2c(c1)N(Cc1cccc(Cl)c1)C(=O)c1ccccc1S2
 : ?, -25%
CCOc1ccc(S(=O)(=O)NCC(c2ccco2)S(=O)(=O)c2ccc(F)cc2)cc1 (stereo not drawn)
 : -21%, ?
COCCn1c(CNC(=O)c2ccccc2C)nc2cccnc21
 : -17%, -1%
NC1=N[C@H]2[C@H](CS[C@H]2CCCCC(=O)O)N1
 : ., -9%[25.2 µM]
CCOC(=O)c1cc(-c2ccc(C)cc2)n(CCCC(=O)Nc2cc(C)ccc2C)c1
 : -26%, ?
CC(C)(C)CC(=O)Nc1nnc2n1CCS2
 : -28%, -2%
COc1ccc2c(c1)sc1ncc(C(=O)NCc3ccc(Cl)cc3)c(=O)n12
 : 19%, -4%
Cc1ccn2c(Nc3ccc4c(c3)OCCO4)c(-c3cccs3)nc2c1
 : 23%, 17%
Cc1cc(=O)n2nc(N(C)CC(=O)NCc3ccc(Cl)cc3)sc2n1
 : 1%, -4%
COc1ccc(C(CNC(=O)c2oc3ccccc3c2C)N2CCCCC2)cc1 (stereo not drawn)
 : -12%, -10%
O=C(Nc1c(-c2ccc(F)cc2)nc2ccccn12)c1cccc(F)c1
 : 5%, -2%
O=C(COc1ccccc1Cl)Nc1ccccc1OCc1cc(=O)n2ccccc2n1
 : 0%, 3%
COc1ccc(S(=O)(=O)NCCc2sc(-c3cccnc3)nc2C)c(F)c1
 : ?, -9%
CCOC(=O)C1CCN(C(=O)Cn2nc(CC)n3c(cc4sccc43)c2=O)CC1
 : -17%, 2.8µM*
COc1cc(-c2cc(OC)c3c(C)oc(C)c3c(=O)c2)ccc1OC(=O)c1ccccc1F
 : ?, 2%
Cc1ccc(NC(=O)c2oc3ccccc3c2NC(=O)c2cc3ccccc3o2)cc1
 : -22%, 2%
CCCNC(=O)c1cc2n(n1)CCCN(Cc1ccc(F)cc1)C2=O
 : 2%, -17%
COCCCn1c(=N)c(C(=O)NCc2cccnc2)cc2c(=O)n3cccc(C)c3nc21
 : -21%, 3%
COc1cccc(C(=O)Nc2cc3c(cc2C(=O)c2ccc(C)cc2)OCCO3)c1
 : 3%, -6%
CC(C)(O)CC[C@@H](O)[C@](C)(O)[C@H]1CC[C@@]2(O)C3=CC(=O)[C@@H]4C[C@@H](O)[C@@H](O)C[C@]4(C)[C@@H]3CC[C@]12C
 : ., -15%
COc1ccc(-c2nn3c(=O)cc(CN4CCN(C(=O)c5ccc(C(C)(C)C)cc5)CC4)nc3s2)cc1
 : -32%, -26%
CCN1CCN(c2csc3ccc(C)cc3c2=O)CC1
 : ?, 49%[activator]
CCOC(=O)C(Cc1c[nH]c2ccccc12)NC(=O)COc1ccc(CC)cc1 (stereo not drawn)
 : -15%, -19%
Cc1ccc(-c2noc(CSc3nnc(C)n3-c3ccc(C)cc3)n2)cc1
 : ?, -28%
O=C(Nc1cc(-c2nc3ccccc3o2)ccc1Cl)c1ccc(N2CCCCC2)c([N+](=O)[O-])c1
 : 0%, 47%[activator]
O=C(Oc1ccccc1C(=O)O)c1ccccc1O
 : ., 4%
COc1ccc(CNC(=O)CSc2nc(-c3ccc(OC)cc3)cc(C(F)(F)F)n2)cc1
 : ?, -10%
CCn1c2c(c(=O)n3ncc(C(=O)Nc4cccc(Cl)c4C)c13)CN(Cc1ccc(OC)cc1)CC2
 : 12%, 2%
CCOC(=O)C1CCC(CN(Cc2ccc(Cl)cc2)S(=O)(=O)c2cccc(Cl)c2C)CC1 (stereo not drawn)
 : -14%, 14%
Cc1cc(C)cc(NC(=O)CCc2nnc3n(CC(C)C)c(=O)c4ccccc4n23)c1
 : -12%, 0%
COc1cc2nc(Nc3cccc(C)c3)nc(N)c2cc1OC
 : ?, -16%
COCCNc1ccc(-c2nc(-c3cccc(C)c3)no2)cc1[N+](=O)[O-]
 : -3%, 23%
COC(=O)Cn1ccc2cc(S(=O)(=O)N3CCCCCC3)ccc21
 : 34%, -23%
COc1ccc(NC(=O)C(NC(=O)Cc2cccs2)c2ccc(OC)cc2)cc1 (stereo not drawn)
 : 38%, -7%

Quoted at random: three compounds from above, in no set order.
Results follow in this order: PMP22 txn, HTT promoter inh
O=C(Oc1ccccc1C(=O)O)c1ccccc1O
 : ., 4%
COc1cc2nc(Nc3cccc(C)c3)nc(N)c2cc1OC
 : ?, -16%
Cc1cc(C)cc(NC(=O)CCc2nnc3n(CC(C)C)c(=O)c4ccccc4n23)c1
 : -12%, 0%

(listing goes on)
Results follow in this order: PMP22 txn, HTT promoter inh
COc1cc(-c2cc(OC)c3c(C)oc(C)c3c(=O)c2)ccc1OC(=O)c1ccccc1Cl
 : ?, -16%
COc1cccc(C(=O)Nc2c3c(nn2-c2ccc(C)cc2C)CS(=O)(=O)C3)c1OC
 : -18%, ?
COc1ccc(CCNC(=O)c2cc(Nc3ccccc3)nc3ccccc23)cc1OC
 : -11%, -17%
CCCCn1c(NCc2ccc(N(C)C)cc2)nc2ccccc21
 : ?, ?
CC(=O)N1CCN(c2csc3ccc(F)cc3c2=O)CC1
 : 2%, 4%
CSc1cccc(NC(=O)C2CCN(S(=O)(=O)c3ccc4[nH]c(=O)ccc4c3)CC2)c1
 : -6%, -9%
COc1cc(OC)c(NC(=O)c2cc(C)nc3c2c(C)nn3-c2ccc(C)cc2)cc1Cl
 : 7%, -3%
Cc1ncc(CO)c2c1Oc1nc(-c3ccccc3Cl)nc(SCc3ccccc3F)c1C2
 : ?, -29%
CCc1c(C)sc2c1CCN(C(=O)Nc1ccccc1Cl)C2c1ccc(OC)cc1 (stereo not drawn)
 : ?, ?
COc1ccc(CNC(=O)CN2C(=O)CSc3ccc(S(=O)(=O)N(C)C)cc32)cc1
 : 3%, -2%

Full records, looked up by structure. Order of values: PMP22 txn	HTT promoter inh
`CCOc1ccc(C2CC(=O)Nc3c2c(=O)nc(SCc2ccccc2C)n3C)cc1OC` (stereo not drawn) across the screens: 24%	-17%
`Cc1ccccc1NC(=O)CSc1cn(CC(=O)N2CCCC2)c2ccccc12` across the screens: 2%	-35%
`O=C(Nc1cc(-c2nc3ccccc3o2)ccc1Cl)c1ccc(N2CCCCC2)c([N+](=O)[O-])c1` across the screens: 0%	47%[activator]

Carrying on:
Results follow in this order: PMP22 txn, HTT promoter inh
COc1ccc(N2CCN(C(=O)Cc3coc4ccc(C)cc34)CC2)cc1
 : -7%, 21%
COc1ccc(NS(=O)(=O)c2ccc(NS(=O)(=O)c3ccc4c(c3)OCCO4)cc2)cc1
 : -2%, -29%
COc1ccc(NC(=O)CSc2nccn2C2CCCC2)cc1OC
 : -24%, -38%
CCC(=O)N1c2ccccc2CC1C(=O)NCc1ccccc1C (stereo not drawn)
 : -1%, 0%
COc1ccc(C(=O)N(Cc2sccc2C)C2CCS(=O)(=O)C2)cc1 (stereo not drawn)
 : -1%, -10%
CCOC(=O)C1CCCN(CC(=O)Nc2cc(C)c3c(=O)oc4ccccc4c3n2)C1 (stereo not drawn)
 : -14%, 0%
Cc1ccc2sc(N(Cc3cccnc3)C(=O)CCOc3ccccc3)nc2c1C
 : ?, -30%
CC1=C[C@@H]2[C@@H]([C@@H](O)C[C@@]3(C)[C@H]2C[C@@H](C)[C@]3(O)C(=O)CO)[C@@]2(C)Cc3cnn(-c4ccccc4)c3C=C12
 : ., -14%
CCOC(=O)c1c(C)[nH]c(C)c1S(=O)(=O)N1CCCC(C(=O)N2CCN(c3ccccc3F)CC2)C1 (stereo not drawn)
 : -4%, -18%
CCc1ccc(S(=O)(=O)c2nnn3c2nc(Nc2cccc(C)c2C)c2sccc23)cc1
 : ?, ?
CCOC(=O)c1cccc(Nc2nc(C(=O)OCC)nc3ccccc23)c1
 : ?, ?
Cc1c2cnn(-c3ccccc3)c(=O)c2c(C)n1CCCC(=O)Nc1cc(F)ccc1F
 : -11%, -8%
CC(C)c1ccc(NC(=O)c2ccc(F)c(S(=O)(=O)N3CCN(c4ccccc4F)CC3)c2)cc1
 : -14%, ?
Cc1ccc(OCc2ccc(-c3nc(C#N)c(NCc4cccnc4)o3)o2)cc1
 : ?, ?
COc1cccc(CN2C(=O)c3ccccc3C2C(=O)NCCc2ccc(OC)c(OC)c2)c1 (stereo not drawn)
 : -5%, -7%
CCCCC1CCC(C(=O)N2CC(=O)Nc3ccc(Br)cc3C2c2ccc(F)cc2)CC1 (stereo not drawn)
 : ?, -43%
Cc1ccc(NC(=O)NCCc2c(C)nn(C)c2C)cc1Cl
 : ?, 12%

Assay outcomes deposited in PubChem BioAssay by National Center for Advancing Translational Sciences (NCATS).
